Hedgehog: Hh protein inhibition, biochemical readout – plate reader, single concentration, primary screen (AID 588832) | Biochemical plate reader assay, Hedgehog inhibition; stronger effect = higher value | inhibition, % at 30.3 µM | 8,000 tested, under 10 active; in the data active = inhibition from about 57%;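 note: 0% = neutral control wells and 100% = positive control wells; cholesterol-driven self-cleavage of fly hedgehog protein by fluorescence polarization; read one hour after cholesterol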
An asterisk follows results filed as active. A portion of the library, so the mix of outcomes need not match the whole.

SMILES	Hedgehog
C/C(=C\CNc1ncnc2nc[nH]c12)CO	13.8
Cc1cc(=O)oc2c3c(cc(OCC(=O)NCCCn4ccnc4)c12)OC(C)(C)CC3	5.1
O=C(Nc1nc2c(F)cc(F)cc2s1)C1CC1	7.7
Nn1c(=O)[nH]c2ccccc2c1=O	0.0
CC(C)(C)OC(=O)NC1CCN(S(=O)(=O)c2ccc3c(c2)OCCO3)CC1	10.0
CCCCCn1c(CN2CCN(C(=O)c3ccco3)CC2)nc2c1c(=O)n(C)c(=O)n2C	9.5
CCCOc1ccc(C(=O)Nc2ccc(S(=O)(=O)N3C[C@@H]4C[C@@H](C3)c3cccc(=O)n3C4)cc2)cc1	7.1
O=C(c1ccco1)N1CCN(C(c2cccs2)c2sc3ncnn3c2O)CC1 (centres undefined)	19.1
O=C(c1ccc(NC2=NC3CS(=O)(=O)CC3S2)cc1)N1CCN(c2ccccc2)CC1 (centres undefined)	6.2
Cc1ccc(C2=NS(=O)(=O)N(C)C(C(=O)NCc3cccs3)=C2)cc1	12.9
CC1CCCN(Cc2nc3c(c(=O)n(C)c(=O)n3C)n2CC(=O)c2ccccc2)C1 (centres undefined)	3.6
CCCc1cc(C(=O)Nc2cc(C)on2)no1	13.5
COc1ccc2ccccc2c1C1CC(=O)N2CN(Cc3ccco3)CSC2=C1C#N (centres undefined)	6.2
CC(=O)Nc1ccc(S(=O)(=O)NCc2ccc3c(c2)cc(C)n3C)cc1	-0.9
CCOC(=O)c1c(NC(=O)CSC2=NN3CCCC(=O)N=C3S2)sc2c1CCCCC2	-2.7
O=C(Cn1nc(Cc2cccnc2)c2ccccc2c1=O)NCc1ccc(F)cc1	7.2
COc1ccc(CCNS(=O)(=O)c2cc3c(cc2C)NC(=O)CO3)cc1OC	5.2
COc1ccc(CCNS(=O)(=O)c2cn(C)c(=O)n(C)c2=O)cc1OC	3.5
COc1ccccc1N1CCN(C(=O)c2sc3nc(-c4ccc(F)cc4)cn3c2C)CC1	2.7
O=C(NCc1cn2ccccc2n1)c1ccco1	6.2
COC1=CC(=O)C(O)=C(CCCCCCC/C=C/CCCCCCCC2=C(O)C(=O)C=C(OC)C2=O)C1=O	5.2
CCc1ccc(NC(=O)c2cccc(NC3=NC4CS(=O)(=O)CC4S3)c2)cc1 (centres undefined)	3.4
O=C(CSc1cn(CCNC(=O)c2cccs2)c2ccccc12)NC1CCCCC1	-0.1
CCCc1cc(=O)oc2cc(C)cc(OC(C)C(=O)N[C@@H](Cc3c[nH]c4ccccc34)C(=O)O)c12 (some centres undefined)	7.2
CCN1CCN(Cc2ccc(NC(=O)CC3Oc4ccc(C)cc4NC3=O)cc2)CC1 (centres undefined)	4.2
CCc1ccc(OCC(=O)N(Cc2cccs2)C2CCS(=O)(=O)C2)cc1 (centres undefined)	3.5
Cc1cccc(NC(=O)C2CCCN(S(=O)(=O)c3c(C)nn(C)c3C)C2)c1 (centres undefined)	5.5
CC1=C(C(=O)NC(C)C)C2(CCC(C)CC2)OC1=O (centres undefined)	-0.9
C=CC(C)Sc1nc2c(c(=O)n(C)c(=O)n2C)n1Cc1ccccc1Cl (centres undefined)	7.7
COc1cc(NC(=O)c2cc(-c3cccc(O)c3)on2)cc(OC)c1OC	0.0
Cn1cnc2c1c(=O)n(Cc1ccccc1)c(=O)n2C	3.8
COc1cccc(C2=NOC(C(=O)Nc3cc(C)nn3-c3ccccc3)C2)c1OC (centres undefined)	5.1
CC(C)N1CCc2c(sc(NC(=O)Cc3ccccc3)c2C#N)C1	5.8
CC1Cc2nc(SCC(=O)NCc3ccccc3)n(Cc3ccccc3)c(=O)c2S1 (centres undefined)	4.6
CCCCC(CC)COC(=O)c1ccc(N(C)C)cc1 (centres undefined)	5.4
CCOc1ccc(NC(c2ccccn2)c2oc(CO)cc(=O)c2O)cc1 (centres undefined)	1.9
O=C(CCC(=O)N1CCOc2ccc(Cl)cc21)NCCCN1CCN(Cc2ccccc2)CC1	7.7
CCOc1ccccc1NC(=O)CSc1nnc(Cc2cccn2C)n1-c1ccc(F)cc1	28.9
OCC(Cc1ccc2c(c1)OCO2)C(CO)Cc1ccc2c(c1)OCO2 (centres undefined)	3.5
C=CC(C)(O)CCCC(C)CCCC(C)CCCC(C)C (centres undefined)	5.4
CCCCCCn1c(CN2CCN(CCO)CC2)nc2c1c(=O)n(C)c(=O)n2C	14.1
CC(C)COC(=O)C1C2C=CC3(CN(C(C)c4ccc(Br)cc4)C(=O)C13)O2 (centres undefined)	10.0
Cc1ccc(S(=O)(=O)N2CCOC2CNC(=O)C(=O)NCc2cccnc2)cc1 (centres undefined)	9.6
COc1ccc(NC(=O)C2=CC(c3ccco3)=NS(=O)(=O)N2C)cc1	6.3
CN(Cc1ccccc1)C(=O)CCn1c(=O)oc2ccccc21	19.1
COC(=O)c1cc(Nc2cc(C)nc3ncnn23)cc(C(=O)OC)c1	5.0
COCCn1c(CN2CCN(C)CC2)nc2c1c(=O)n(C)c(=O)n2C	7.1
Cc1ccc(CCNS(=O)(=O)c2ccc3c(c2)NC(=O)C(C)C(=O)N3)cc1 (centres undefined)	3.5
O=C(c1ccco1)N1CCN(C(=O)c2cccc3c2C(=O)N(Cc2cccnc2)C3)CC1	9.2
COc1ccc(CCNC(=O)C(=O)NCC2OCCN2S(=O)(=O)c2cc(F)ccc2F)cc1 (centres undefined)	5.8
O=C1c2ccccc2C(Nc2ccc3c(c2)OCCO3)N1Cc1ccc2c(c1)OCO2 (centres undefined)	8.3
O=C1CCC(=O)O1	10.7
Cn1cc(S(=O)(=O)Nc2cccc(F)c2)c(=O)n(C)c1=O	4.4
Cc1ccc(-n2nnc3c(=O)n(CC(=O)N4CCOCC4)cnc32)cc1	0.0
CC1CC(C)CN(C(=O)c2ccc3c(c2)N(Cc2ccccc2)CCS3)C1 (centres undefined)	25.0
CCOC(=O)C1CCCN(C(=O)Cn2nc(Cc3cccnc3)c3ccccc3c2=O)C1 (centres undefined)	19.1
Cn1cccc1Cc1nnc(SCC(=O)NCCc2ccccc2)n1-c1ccc(F)cc1	16.7
O=C(/C=C/c1ccc(O)c(O)c1)NC(=O)c1ccccc1O	8.6
Cc1ccc2oc(=O)c3cnn(CC(=O)N4CCc5ccccc5C4)c3c2c1	8.3
Cc1ccc2oc(=O)c3cnn(CC(=O)NC4CCN(Cc5ccccc5)CC4)c3c2c1	-1.7

Quoted from the listing.
COc1ccc2ccccc2c1C1CC(=O)N2CN(Cc3ccco3)CSC2=C1C#N (centres undefined) in Hedgehog shows 6.2
COc1cc(NC(=O)c2cc(-c3cccc(O)c3)on2)cc(OC)c1OC in Hedgehog shows 0.0

Next part.
SMILES	Hedgehog
O=C1COc2cc(S(=O)(=O)CCC(=O)N3CCCCC3)c(Cl)cc2N1	8.4
COc1ccc2c(c1OC)C(=O)OC2N1C(=O)CC[C@H]1C(=O)Nc1ccc2c(c1)OCO2 (some centres undefined)	14.0
CCCCN(Cc1cc2cc(OC)ccc2[nH]c1=O)S(=O)(=O)c1ccc(C)cc1	19.0
CC1C(=O)OC2C1CCC1(C)C3(C)C(=O)C=CC213 (centres undefined)	6.9
CCOc1ccccc1CNC(=O)c1ccc2c(c1)N(CC)CCS2	10.2
COC(=O)c1ccc(CSc2nc3c(c(=O)n2-c2ccc(C)cc2)SCC3)o1	7.1
O=C1CC(=O)Nc2cc(S(=O)(=O)N3CCOc4ccccc43)ccc2N1	1.7
Cc1ccsc1-c1nc(CSCC(=O)N2CCN(c3ccccc3)CC2)c(C)o1	-0.9
CCN(C(=O)C1CCCN(c2nc(-c3ccc(OC)cc3)no2)C1)c1ccc(OC)cc1 (centres undefined)	20.0
CC(C)[C@H](NC(=O)N1CC(=O)Nc2ccccc21)C(=O)N[C@H](Cc1ccccc1)C(=O)O	3.4
CCOC(=O)C(C)n1cnc2c(nnn2-c2cccc(Cl)c2)c1=O (centres undefined)	-2.8
CCOc1ccc(N(Cc2ccccc2F)C2=NC3CS(=O)(=O)CC3S2)cc1 (centres undefined)	-1.8
C=CCOC(=O)CCCCCCCC	7.1
Cc1ccc(-c2nc(C(=O)NCC3CCCO3)cc3c2[nH]c2ccccc23)cc1 (centres undefined)	3.4
Cc1cccc(Cn2cc(SCC(=O)Nc3nccs3)c3ccccc32)c1	3.6
COc1cccc2c(=O)n(CC(=O)N3CCN(c4ccccc4)CC3)ccc12	3.8
CC1CCC(NC(=O)CCC(=O)N2CC(C)Oc3ccccc32)CC1 (centres undefined)	14.9
CCN1CCc2c(sc(NC(=O)c3ccc(S(=O)(=O)N4CCOCC4)cc3)c2C(N)=O)C1	5.4
COc1ccccc1-n1c(CNC(=O)c2ccccc2)nnc1SCC(=O)Nc1nnc(C)s1	3.5
Cc1ccc2[nH]c(=O)c3cc(C(=O)N(CCCOC(C)C)Cc4ccco4)sc3c2c1	6.8
COCCCNC(=O)Cn1cc2c(n1)CCC(C)C2 (centres undefined)	23.4
O=C1c2ccccc2C(Nc2cccnc2)N1Cc1ccccc1Cl (centres undefined)	8.0
COc1ccc(CCNC(=O)C(=O)NCC2OCCN2S(=O)(=O)c2ccccc2)cc1 (centres undefined)	5.1
CCC(C)C(=O)OCC1(c2ccc(C)cc2OC(=O)C(C)C)CO1 (centres undefined)	10.8
Cc1ccc2c(c1)N(C(=O)CCC(=O)NCc1cccc(Cl)c1)CC(C)O2 (centres undefined)	3.4
Cc1ccc(C)c(N2CCN(C(=O)c3ccc(CSc4nc5ccncc5[nH]4)cc3)CC2)c1	28.9
Cc1ccccc1C=O	12.5
Cc1ccc2c(c1)c1c(n2CC(O)CNC2CCCCC2)CCCC1 (centres undefined)	6.3
Cc1noc(/C=C/N(C)C)c1S(=O)(=O)N1CCCC(C(=O)N2CCc3ccccc32)C1 (centres undefined)	3.4
O=C(Nc1ccc2c(c1)OCO2)c1cc(C2CC2)on1	9.7

3 compounds out of the list above, sorted by their value in Hedgehog, lowest first.
Compound,Hedgehog
Cc1ccc2c(c1)N(C(=O)CCC(=O)NCc1cccc(Cl)c1)CC(C)O2 (centres undefined),3.4
COc1ccccc1-n1c(CNC(=O)c2ccccc2)nnc1SCC(=O)Nc1nnc(C)s1,3.5
COc1ccc(CCNC(=O)C(=O)NCC2OCCN2S(=O)(=O)c2ccccc2)cc1 (centres undefined),5.1

(list continues)
SMILES	Hedgehog
COc1ccc(C2N3CC4(C)CN2CC(C)(C3)C4=O)cc1OC (centres undefined)	6.3
O=C(c1cc(C2CC2)on1)N1CCN(C(c2ccccc2)c2ccccc2)CC1	0.0
COc1ccc(OC)c2sc(NC(=O)c3ccc(Cl)s3)nc12	1.9
O=C(NCCN1CCOCC1)c1ccccc1N1C(=O)[C@@H]2Cc3c([nH]c4ccccc34)C(c3cccc(Cl)c3)N2C1=O (some centres undefined)	5.2
COC(=O)c1ccc(Nc2cc(C)nc3nc(C)nn23)cc1	20.0
COc1cccc(C2C(C(=O)OCc3ccccc3)=C(C)Nc3ncnn32)c1OC (centres undefined)	8.3
CNC(=O)C1CCN(S(=O)(=O)c2c(C)noc2/C=C/c2ccccc2F)CC1	5.8
CCOC(=O)CN1CC23C=CC(O2)C(C(=O)NCc2ccc(F)cc2)C3C1=O (centres undefined)	12.5
CC1CCN(S(=O)(=O)c2nnc(NC(=O)c3ccccc3Br)s2)CC1	3.4
CCCCNC(=S)NCc1ccc2[nH]c(C)cc2c1	-0.9
Cc1cc(C)cc(NS(=O)(=O)c2cc3[nH]c(=O)c(=O)[nH]c3cc2C)c1	15.0
COc1cc(C(c2sc3nc(C)nn3c2O)N2CC(C)CC(C)C2)cc(OC)c1OC (centres undefined)	1.8
COc1c(O)cc(O)c2c(=O)cc(-c3ccccc3)oc12	5.2
O=C(NC1CC1)c1ccc(CS(=O)(=O)c2c(Cl)cccc2Cl)o1	20.0
Cc1ccc2c(cnn2C(=O)CCC(=O)NCc2ccccc2Cl)c1	0.0

Taken from the listing for reference:
SMILES	Hedgehog
COc1c(O)cc(O)c2c(=O)cc(-c3ccccc3)oc12	5.2
O=C(NC1CC1)c1ccc(CS(=O)(=O)c2c(Cl)cccc2Cl)o1	20.0
Cc1ccc2c(cnn2C(=O)CCC(=O)NCc2ccccc2Cl)c1	0.0

(further entries)
SMILES	Hedgehog
Cc1cccc(CC(=O)OCn2nnc3ccccc3c2=O)c1	0.9
O=C(NCCc1ccccc1)C(=O)NCC1OCCN1S(=O)(=O)c1ccc(F)cc1 (centres undefined)	3.8
Cc1cc(OCC(=O)NC(Cc2ccc(Cl)cc2)C(=O)O)c2c(C)c(C)c(=O)oc2c1 (centres undefined)	0.1
COc1ccc(C)cc1NS(=O)(=O)c1cn(C)c(=O)n(C)c1=O	9.5
CCC1CN(C)C2Cc3c([nH]c4ccccc34)C(=O)CC1C2C(=O)OC (centres undefined)	5.2
COc1cc(OC)c2c(-c3ccccc3)cc(=O)oc2c1	6.8
Cc1c(C)c2ccc(OC(C)C(=O)NCCc3c[nH]c4ccccc34)cc2oc1=O (centres undefined)	6.6
Cc1cc(C)n2nc(S(=O)(=O)NC3CCCCC3)nc2n1	25.0
COc1ccc(NC(=O)c2nnn(Cc3ccc(SC)cc3)c2N)c(OC)c1	14.9
Cc1nn(CCCC(=O)NCc2ccccc2)c(=O)c2nccn12	7.1
Clc1ccc(Cc2nnc(-c3cccs3)o2)cc1	20.0
CC1(C)C2CC[C@]3(C)C(CC=C4[C@@H]5C[C@@](C)(CO)CC[C@]5(C(=O)O)CC[C@]43C)[C@@]2(C)CC[C@@H]1O (some centres undefined)	6.9
CCc1cc2c(-c3ccccc3)cc(=O)oc2cc1OC(C)C(=O)NCC1CCC(C(=O)O)CC1 (centres undefined)	5.1

Part of the list above in order of SMILES length, rising:
SMILES	Hedgehog
Cc1cccc(CC(=O)OCn2nnc3ccccc3c2=O)c1	0.9
Cc1cc(OCC(=O)NC(Cc2ccc(Cl)cc2)C(=O)O)c2c(C)c(C)c(=O)oc2c1 (centres undefined)	0.1
CC1(C)C2CC[C@]3(C)C(CC=C4[C@@H]5C[C@@](C)(CO)CC[C@]5(C(=O)O)CC[C@]43C)[C@@]2(C)CC[C@@H]1O (some centres undefined)	6.9

Source: PubChem
